Screening data from PubChem.
Rango complex inh – inhibitors of Rango-importin beta complex formation. Q14974. Rango CFP/YFP FRET sensor + importin beta, 45 min. Potency, µM (doses to about 92.2 µM), for the others: at the highest dose inhibition of complex formation. 340,000 tested, 0.031% active. AID 540263; active = rising FRET ratio curve, often small or poorly fitted; inconclusive = mostly compound fluorescence or quenching in the first reads; inactive = flat curves in all reads;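 further: potency means the concentration at half of the fitted maximal effect; 0% = DMSO wells and 100% = buffer wells lacking importin beta; nearly all actives have a fitted effect of over 15% in size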
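FRET biosensor Rango (snurportin 1 IBB between N-terminal EYFP and C-terminal Cerulean), 50 nM in PBS/1 mM DTT/0.02% Tween-20/0.1% BSA, preincubated 5 min RT with compound; 0.125 microM importin beta added, 45 min RT, CFP/YFP FRET ratio read.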
GLA inh pH 4.5 – inhibitors of human alpha-galactosidase A at pH 4.5; purified enzyme, 4-MU-alpha-Gal fluorescence, pH 4.5; activity change, negative = inhibition, % at 105 µM; 230,000 tested, under 10 active; inconclusive = small, poorly fitted or top-dose-only inhibition, or a rising curve; inactive = flat fitted curve, though single readings scatter; no compound was filed as active;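 further: 0% = full activity with enzyme and -100% = basal without enzyme; dose as in the result columns while the protocol names 77 µM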
Target sequence (P06280 whole entry, looked up): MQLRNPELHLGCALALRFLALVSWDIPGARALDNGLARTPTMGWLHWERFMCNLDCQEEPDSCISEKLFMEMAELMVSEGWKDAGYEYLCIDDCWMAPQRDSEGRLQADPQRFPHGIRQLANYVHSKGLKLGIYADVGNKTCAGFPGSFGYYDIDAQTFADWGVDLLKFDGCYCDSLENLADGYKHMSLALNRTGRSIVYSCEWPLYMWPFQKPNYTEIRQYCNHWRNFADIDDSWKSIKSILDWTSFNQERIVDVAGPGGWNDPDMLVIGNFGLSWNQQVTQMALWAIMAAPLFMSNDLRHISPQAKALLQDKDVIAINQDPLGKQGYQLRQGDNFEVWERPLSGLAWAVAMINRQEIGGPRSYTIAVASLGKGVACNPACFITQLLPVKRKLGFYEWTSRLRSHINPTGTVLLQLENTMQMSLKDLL
Rango release inh – prevents RanGTP from dissociating the Rango-importin beta complex | O95149+P62826 | Biochemical FRET Rango-importin beta, RanGTP-induced dissociation | Potency, µM (series often up to 46.1 µM), inactives show at the top dose activity change, negative = inhibition | 340,000 tested, 0.071% active; active means falling FRET ratio curve, often poorly fitted, with flat reads before Ran was added; inconclusive means other falling curves, or compound fluorescence or quenching; inactive means flat or rising ratio curve;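 further: potency means the concentration at half of the fitted maximal effect; % of control where 0% means no effect; nearly all actives have a fitted effect of over 45% in size; -100% = wells without RanGTP and RCC1; the record marks most hits as doubtful in a second field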
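Rango/importin beta premix (0.1/0.25 uM final), PBS + 1 mM DTT + 0.02% Tween-20 + 0.1% BSA; cpd 5 min RT; FRET pre-read; + RanGTP-RCC1 (0.6 uM Ran, 2 mM GTP, 0.2 uM RCC1); 45 min RT; FRET post-read, ex 430, em 486/530 nm.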
miR-21 reporter – miR-21 reporter, rising signal. HeLa miR-21 FLuc reporter, luciferase, 48 h. Potency, µM (top dose mostly 38.3 µM), for inactives: at the top dose reporter change, positive = more light. 340,000 tested, under 10 active; active = well fitted rising curve with a large enough effect; inconclusive = small, poorly fitted or top-dose-only effect; inactive = no such curve, though single readings can be large or run the other way;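 further: % of control where 0% means no effect; miR-21 action dims this reporter so a rising signal means less miR-21 action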
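HeLa cells stably expressing CMV-driven firefly luciferase with a downstream miR-21 binding sequence, endogenously expressing miR-21, were treated with titrations (up to about 40uM final) for 48 hours at 37 degree Celsius. Luciferase luminescence was read after lysis.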
* marks the source's active call; other numbers are inactive results; ? = inconclusive; nt = no result given; [ ] = remark or other dose. Not all compounds are listed. The share of hits here may be higher or lower than overall.

SMILES,Rango complex inh,GLA inh pH 4.5,Rango release inh,miR-21 reporter
O=C(COC(=O)c1ccc2ccccc2c1O)Nc1ccccc1,1.2%,nt,12%,nt
O=C(NN=Cc1ccc(Cl)cc1Cl)C1CC1,2.9%,nt,2%,nt
CCOC(=O)CN(C(=O)CSc1nnc(-c2ccncc2)n1CCCN(C)C)c1ccccc1,-0.3%,-5,-2%,-4%
CCC(=O)c1ccc(OCC(O)Cn2cnc3ccccc32)cc1 (centres undefined),5.7%,-2,7%,-10%
Cc1c(Cl)cccc1NC(=O)CNC(=O)c1cn(-c2ccccc2)nc1-c1cccnc1,-1.0%,nt,-17%,nt
COc1ccc(Cl)cc1C(=O)NNC(=O)CSc1nnnn1C,-0.4%,5,11%,7%
CCn1c(CCNC(=O)c2ccc(Cl)cc2)nnc1SCC(=O)NC1CCCC1,0.4%,-4,-13%,6%
Cc1ccc(Cl)c(NC(=O)COC(=O)c2cc[n+]([O-])cc2)c1Cl,0.0%,nt,-14%,nt
Cc1cc(C(=O)N2CCc3ccccc3C2)no1,0.3%,nt,1%,-18%
COc1ccc(OC)c2[nH]c(=O)c(CCNC(=S)NC(C)(C)C)cc12,3.1%,2,5%,-1%
COC(=O)c1ccccc1NC(NC(=O)c1ccco1)C(=O)c1ccc(C)cc1 (centres undefined),-0.3%,-5,-7%,-6%
Clc1ccc(-c2ccc(-c3nn4c(-c5ccco5)nnc4s3)o2)cc1,-0.3%,nt,0%,nt
CCOc1ccc2ccccc2c1C(=O)NCC(c1ccc(N(C)C)cc1)N(C)C (centres undefined),4.3%,nt,-5%,-1%
CN(C)CC(O)c1ccc(C=Cc2ccc(Cl)cc2)cc1 (centres undefined),3.6%,nt,-4%,nt
CC(=O)c1c(C)oc2c1C(=O)c1ccccc1C2=O,12%,-18,-21%,-5%
Cc1cc(NC(=O)C2CC=CCC2C(=O)O)ccc1NC(=O)c1ccccc1 (centres undefined),0.1%,nt,10%,-30%
COc1ccc(OC)c(/C=C/c2nc3ccccc3[nH]c2=O)c1,?,nt,?,-14%
Cc1ccc(CN2CCc3c(OCc4ccc(F)cc4)cccc3C2=O)cc1,0.0%,-8,-5%,23%
COc1ccc2cc(S(=O)(=O)Nc3ccccn3)ccc2c1,-2.1%,nt,21%,1%
CCC(=O)Nc1ccc(C(=O)CSc2nnc(-c3ccc(NS(=O)(=O)CC)cc3)o2)cc1OC,-2.6%,4,0%,0%
CCCC(=O)OC1CCS(=O)(=O)c2sccc21 (centres undefined),-1.6%,-1,-6%,-1%
COC(=O)C1C(c2ccc(OC)cc2)Nc2nnc(C(F)(F)F)n2C1(C)O (centres undefined),-2.0%,10,-1%,2%
COC(=O)C1=C(C)N(c2ccc(F)cc2)/C(=C/c2ccc(O)cc2)C1=O,1.9%,-7,6%,19%
CC1CN(S(=O)(=O)c2cccc(C(=O)NCC3COc4ccccc4O3)c2)CC(C)O1 (centres undefined),-2.1%,nt,-11%,nt
CC[C@]12C(=O)N(C)C[C@H]([C@@H]3C(=O)N(C)C(=O)[C@@H]31)N2C(=O)c1ccc(Cl)c(Cl)c1,-3.4%,nt,-18%,nt
O=C(c1ccc(S(=O)(=O)N2CCOCC2)cc1)N(Cc1ccco1)Cc1cccs1,-3.1%,5,1%,-3%
O=C(NC1=NCCS1)c1cccc(S(=O)(=O)N2CCc3ccccc32)c1,-1.4%,4,3%,6%
COc1cccc(C2SCC(=O)N2c2ccc(Cl)cc2)c1OC (centres undefined),6.5%,1,-6%,-13%
COc1ccc(CN2CC[C@H]3C=CC[C@@H](C(=O)NCCc4ccccc4)[C@H]3C2=O)cc1OC,1.8%,nt,0%,nt
O=C(c1cccc(F)c1)N1CCN(c2ccc([N+](=O)[O-])c(N3CCOCC3)c2)CC1,1.6%,-5,3%,1%

(more compounds)
SMILES,Rango complex inh,GLA inh pH 4.5,Rango release inh,miR-21 reporter
CCCS(=O)(=O)n1nc(-c2ccc(C)cc2)cc1N,-1.8%,6,5%,-41%
COc1ccc(Cc2nc(-c3cccnc3)no2)cc1OC,6.2%,2,-15%,-15%
c1ccc(Cc2nn3c(-c4ccncc4)nnc3s2)cc1,1.6%,-4,-20%,-7%
CCCC(=O)N1CCN(c2nnc(-c3ccccc3)c3ccccc23)CC1,2.8%,nt,3%,5%
O=C(COc1ccc(Cl)cc1Cl)Nc1ccc(C(=O)Nc2ccccc2C(=O)O)cc1,-7.9%,nt,30%,-9%
CC(=O)N1CCc2cc(Br)cc(S(=O)(=O)NCCCN3CCCC(C)C3)c21 (centres undefined),5.7%,-10,19%,-10%
COc1ccc(CN2CCCC(C(=O)N3CCCC3)C2)c(OC)c1 (centres undefined),9.9%,nt,7%,2%
CC(C)Nc1nc(-c2ccccc2)nc(-n2ccnc2)n1,?,1,-9%,-4%
Cc1ccccc1OCC(=O)NC1=NCCS1,2.5%,-1,1%,-54%
CN(Cc1ccc2c(c1)OCO2)C(=O)c1cc(-c2ccccc2)c(N2CCOCC2)s1,-5.7%,nt,13%,nt
CCCCOC(=O)N/N=C/C=C/c1ccccc1,-1.0%,-3,36%,-32%
COc1ccc(CCN2C(=O)c3ccccc3NC2c2cc(Cl)c(O)c(OC)c2)cc1 (centres undefined),2.0%,nt,12%,16%
Cc1cc(C)n(-c2ccc([N+](=O)[O-])cc2-c2nn[nH]n2)n1,-0.4%,-1[21.1 µM],5%,1%
CCOc1ccc(OCC(=O)Nc2ccc(S(N)(=O)=O)cc2)cc1,-0.3%,1,2%,-1%
O=S(=O)(c1ccc(F)cc1)N1CCN(c2ccc(-c3ccccc3)nn2)CC1,0.4%,-6,-5%,-3%
NS(=O)(=O)c1cccc(NC(=O)CSc2nnc(C3CC3)n2Cc2ccccc2)c1,2.8%,1,0%,0%
CCC(=O)OC1(C#CCOc2ccc(OC)cc2)CCN(C)CC1,?,2,12%,-4%
Cc1ccc(-n2nccc2-c2nn(-c3cccc(C(F)(F)F)c3)c(=O)n(C)c2=O)cc1,3.0%,0,1%,-2%
O=C(Nc1nc2ccccc2[nH]1)c1ccc(Br)o1,-0.1%,9,-4%,0%
CCN(CC)CCn1c2ccc(Cl)cc2c2nc(C)sc21,-1.4%,-3,20%,27%
O=S(=O)(Cc1ccccc1)N1CCc2ccccc21,nt,11,nt,-17%
CN(C1CCCCC1)S(=O)(=O)c1ccc(S(=O)(=O)N2CCN(CCC#N)CC2)cc1,-2.7%,1,13%,-6%
CCOc1ccc(Nc2nc(N)c([N+](=O)[O-])c(N3CCN(C)CC3)n2)cc1,1.3%,nt,-10%,-11%
CC(C)Oc1ccc(S(=O)(=O)N(C(C)C)C(C)C)cn1,3.0%,-4,0%,-6%
CSCCC(NS(=O)(=O)c1ccc(Cl)cc1)C(=O)OCC(=O)c1c(C)[nH]c2ccccc12 (centres undefined),-0.1%,0,9%,?
COc1ccc(N2CCN(C(=O)CN3CCN(C(c4ccccc4)c4ccccc4)CC3)CC2)cc1,7.0%,-6,-5%,4%
Cc1ccc([N+](=O)[O-])cc1S(=O)(=O)Nc1ccc(N2CCOCC2)cc1,2.2%,-15,2%,-8%
O=C(Cc1cccs1)N1CCN(c2ccc([N+](=O)[O-])cc2)CC1,0.9%,-6,10%,7%
FC(F)(F)c1ccncc1-c1nnnn1-c1ccc(Cl)cc1,-1.4%,-5,8%,13%
Clc1ccc(/C=N/Nc2nc(Cl)nc3ccccc23)cc1,?,-8,?,-47%

One compound at a time, from the list above. Values in the order: Rango complex inh, GLA inh pH 4.5, Rango release inh, miR-21 reporter
Cc1ccccc1OCC(=O)NC1=NCCS1 in the list: 2.5%, -1, 1%, -54%
O=C(c1ccc(S(=O)(=O)N2CCOCC2)cc1)N(Cc1ccco1)Cc1cccs1 in the list: -3.1%, 5, 1%, -3%

More compounds follow.
SMILES,Rango complex inh,GLA inh pH 4.5,Rango release inh,miR-21 reporter
COc1ccc(CCNC(=S)NC2CCN(Cc3ccccc3)CC2)cc1,2.2%,-5,-1%,25%
Cc1ccc(S(=O)(=O)N(C)C)cc1NC(=S)N1CCCCC1CO (centres undefined),-0.7%,3,20%,-2%
CSC1=NCCN1S(=O)(=O)c1ccc(NC(C)=O)cc1,0.4%,1,4%,-2%
Cc1nc(SCC(=O)N2CCNC2=O)c2ccccc2n1,0.3%,nt,-1%,nt
O=C(Nc1ccc(Cl)c(C(F)(F)F)c1)[C@@H]1CC=C[C@@H]2CCN(C3CCCCC3)C(=O)[C@@H]21,0.5%,nt,-3%,nt
Cn1nc(C(=O)NCC2COc3ccccc3O2)c2ccccc2c1=O (centres undefined),-1.3%,nt,-6%,nt
Cc1ccc(NC(=O)CC(=O)NCCN2CCOCC2)cc1,-0.4%,2,2%,-9%
COc1cc(Cl)c(C)cc1NC(=O)CC1CCCC1,3.8%,nt,28%,-4%
CCN(CC(=O)Nc1cccc(F)c1)Cc1nc2ccccc2c(=O)[nH]1,0.4%,-2,5%,0%
CCn1cc(CCC(=O)NC(C)c2ccccc2)c2ccccc21 (centres undefined),0.6%,nt,1%,2%
Cc1cc(C)cc(C(=O)N[C@@H](C)C(=O)N2CCC3(CC2)NCCc2[nH]cnc23)c1,0.2%,nt,-12%,0%
CCCCC1(CC)COC(c2ccccc2)OC1 (centres undefined),8.1%,nt,9%,nt
COc1ccc(F)cc1S(=O)(=O)Nc1cc2c3c(c1)CCC(=O)N3CCC2,-0.9%,nt,?,nt
Cc1c(NC(=O)c2cc3c(s2)-c2ccccc2OC3)cccc1[N+](=O)[O-],-0.6%,1,-8%,16%
Cc1ccc(C2=NCCn3c2c2ccc([N+](=O)[O-])cc2[n+]3[O-])cc1,?,nt,-2%,nt
CC(=O)Nc1ccc(S(=O)(=O)N(C)CC(=O)OCC(=O)NNC(=O)c2ccccc2F)cc1,?,nt,-12%,nt
Cc1cc(C)cc(NC(=O)CSc2nc3ccccc3nc2N2CCCCC2)c1,2.1%,nt,-13%,-5%
Cc1cccc2[nH]c(CN(C)C(=O)C3CCC(=O)N(CCc4ccccc4)C3)nc12 (centres undefined),?,nt,19%,1%
COCCNC(=O)CCn1nc(-c2ccc(Cl)cc2)ccc1=O,-2.5%,4,10%,0%
O=C(NCCS(=O)(=O)N1CCN(c2ccccc2F)CC1)c1cccc(Br)c1,1.3%,nt,-12%,3%
Cc1ccccc1-c1nsc(SCC(=O)c2ccc(Cl)cc2)n1,-1.1%,-22,-1%,-15%
CCN(CC(=O)Nc1ccccc1C(F)(F)F)C(=O)c1ccc(=O)n(Cc2ccccc2)n1,0.6%,nt,1%,-5%
C=CCn1c(CNC(=O)c2cccs2)nnc1SCC(=O)Nc1ccc(C(=O)O)cc1,-2.7%,-5,2%,2%
Cc1onc(-c2c(F)cccc2Cl)c1C(=O)Nc1sc2c(c1C(N)=O)CCC2,6.7%,0,1%,22%
CCN1CCN(c2nc3ccccn3c(=O)c2C=O)CC1,?,nt,?,-5%
Cc1onc(-c2ccccc2)c1C(=O)N1CCOC12CCN(c1cccc(F)n1)CC2,-0.3%,-6,2%,2%
O=[N+]([O-])c1cccc(S(=O)(=O)N2CN(c3ccc(Br)cc3)c3nc4ccccc4nc32)c1,2.3%,nt,4%,nt
CCOC(=O)C1=C(c2ccccc2)N=C2SCC(=O)N2C1c1ccc(OC)c(OC)c1 (centres undefined),0.2%,-9,31%,-6%
Cc1cc(C)nc(NC(=O)CSc2nc3ccccc3s2)n1,1.1%,2,1%,-51%
O=C(c1ccccc1F)N1CCN(S(=O)(=O)c2ccc(Br)cc2)CC1,-4.1%,nt,13%,-3%
Cc1ccc(C(=O)N2CCSC2=S)cc1,-0.8%,1,-20%,-10%
